Env fusion inh: blocks HIV Env-driven cell-cell fusion; AID 651610; inhibition, % at 12.3 µM; 360,000 compounds, 1.1% hits; HeLa-JRFL Env/CEM21 cell fusion, luciferase;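 active means mean replicate inhibition score of at least 50 and every replicate individually at or above 50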;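 further: 0% = plate neutral controls and 100% = maraviroc near 300 nM; one replicate is shown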
Yeast UUG start: alters start codon recognition fidelity in yeast; S. cerevisiae UUG-firefly luciferase reporter, luminescence/redox ratio; activity score, % at 18.7 µM; 350,000 compounds, 0.13% hits;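 active means replicate mean at a twofold rise or more, about +100% in these data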;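 further: firefly luciferase made from a UUG start codon reports start codon fidelity; reporter light over untreated wells divided by growth signal over untreated wells; some hits fall short of that in this replicate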
* hit, by the source's call; & = joins results of further samples; [ ] = remark or other dose. An excerpt; rates above refer to the full screens.

Results for C[C@@H]1CCCCO[C@@H](CN(C)C(=O)Nc2ccc(F)cc2)[C@H](C)CN([C@@H](C)CO)C(=O)c2cc(NS(=O)(=O)c3ccccc3)ccc2O1 ?
Env fusion inh: -10.6[16.7 µM]; Yeast UUG start: -3.0

What do the screens show for `C[C@@H]1CN([C@H](C)CO)C(=O)c2cc(C#CCc3ccccc3)cnc2O[C@@H]1CN(C)Cc1cccc(C(=O)O)c1`?
Env fusion inh: -6.3[16.7 µM]; Yeast UUG start: 1.9

How did C[C@H](CO)N1C[C@H](C)[C@@H](CN(C)C(=O)Nc2cccc3ccccc23)Oc2c(NC(=O)c3ccncc3)cccc2C1=O do in these assays?
Env fusion inh: 13.4[16.7 µM]; Yeast UUG start: 0.1

How did CCCC#Cc1cnc2c(c1)C(=O)N([C@@H](C)CO)C[C@H](C)[C@@H](CN(C)C(=O)c1ccc(F)cc1)O2 do in these assays?
Env fusion inh: -7.4[16.7 µM]; Yeast UUG start: 4.8

How did CO[C@H]1CN(C)C(=O)c2ccc(NS(=O)(=O)c3c(C)noc3C)cc2OC[C@@H](C)NC[C@@H]1C do in these assays?
Env fusion inh: 4.2[16.7 µM]; Yeast UUG start: -2.8

What do the screens show for `C[C@H](CO)N1C[C@H](C)[C@H](CN(C)S(=O)(=O)c2ccc(F)cc2)Oc2cc(-c3cccc(F)c3)ccc2S1(=O)=O`?
Env fusion inh: 41.8[16.7 µM]; Yeast UUG start: -13.0

What do the screens show for `O=C(CC1CC1)Nc1ccc2c(c1)[C@H]1C[C@H](CC(=O)N3CCCCC3)O[C@H](CO)[C@H]1O2`?
Env fusion inh: -10.9[16.7 µM]; Yeast UUG start: 1.9

What do the screens show for `CNC(=O)C[C@H]1CC[C@@H]2[C@H](COc3ccc(NC(=O)c4cc(C)on4)cc3C(=O)N2C)O1`?
Env fusion inh: -11.0[16.7 µM]; Yeast UUG start: -4.7

Results for C[C@H](CO)N1C[C@H](C)[C@@H](CN(C)C(=O)CCCN(C)C)OCCCC[C@H](C)Oc2ccc(NC(=O)CCCN(C)C)cc2C1=O ?
Env fusion inh: -6.0[16.7 µM]; Yeast UUG start: 15.2

How did COc1ccccc1NC(=O)N[C@H]1CC[C@H](CCn2cc(-c3ccccc3OC)nn2)O[C@H]1CO do in these assays?
Env fusion inh: -2.3[16.7 µM]; Yeast UUG start: -2.3

What do the screens show for `O=C(Cc1ccccn1)N[C@@H]1CC[C@H](CCNC(=O)c2cc(Cl)cc(Cl)c2)O[C@H]1CO`?
Env fusion inh: 8.4[16.7 µM]; Yeast UUG start: 7.8

How did C[C@H]1CN([C@@H](C)CO)S(=O)(=O)c2ccc(Br)cc2O[C@H]1CN(C)C do in these assays?
Env fusion inh: 10.4[16.7 µM]; Yeast UUG start: -1.2

What do the screens show for `CN1C(=O)c2cc(NC(=O)c3cccc(F)c3)ccc2OC[C@H]2O[C@@H](CC(=O)NC3CCC3)CC[C@H]21`?
Env fusion inh: -84.7&3.9[16.7 µM]; Yeast UUG start: 8.9&-0.8

How did O=C(NCC[C@H]1CC[C@H](NC(=O)c2cnccn2)[C@@H](CO)O1)Nc1ccc(Cl)cc1 do in these assays?
Env fusion inh: -13.9[16.7 µM]; Yeast UUG start: 10.7

How did C[C@H]1CCCCO[C@H](CN(C)C(=O)Nc2cccc3ccccc23)[C@@H](C)CN([C@@H](C)CO)C(=O)c2cc(NC(=O)Nc3ccc(C(F)(F)F)cc3)ccc2O1 do in these assays?
Env fusion inh: 11.4[16.7 µM]; Yeast UUG start: -16.4

4 structures from above, sorted by SMILES length, smallest number first.
How did C[C@H]1CN([C@@H](C)CO)S(=O)(=O)c2ccc(Br)cc2O[C@H]1CN(C)C do in these assays?
Env fusion inh: 10.4[16.7 µM]; Yeast UUG start: -1.2

How did O=C(NCC[C@H]1CC[C@H](NC(=O)c2cnccn2)[C@@H](CO)O1)Nc1ccc(Cl)cc1 do in these assays?
Env fusion inh: -13.9[16.7 µM]; Yeast UUG start: 10.7

What do the screens show for `O=C(Cc1ccccn1)N[C@@H]1CC[C@H](CCNC(=O)c2cc(Cl)cc(Cl)c2)O[C@H]1CO`?
Env fusion inh: 8.4[16.7 µM]; Yeast UUG start: 7.8

Results for C[C@@H]1CCCCO[C@@H](CN(C)C(=O)Nc2ccc(F)cc2)[C@H](C)CN([C@@H](C)CO)C(=O)c2cc(NS(=O)(=O)c3ccccc3)ccc2O1 ?
Env fusion inh: -10.6[16.7 µM]; Yeast UUG start: -3.0

Next entries:
What do the screens show for `CCCC(=O)Nc1ccc2c(c1)OC[C@@H](C)N(C(=O)C1CCCC1)C[C@H](C)[C@@H](OC)CN(C)C2=O`?
Env fusion inh: -12.6[16.7 µM]; Yeast UUG start: 20.7

Results for C=CCNC(=O)[C@H]1[C@@H]2C(=O)O[C@@H](c3ccccc3)[C@@H](c3ccccc3)N2[C@@H](c2ccccc2OCCO)[C@]12C(=O)N(C(=O)OCCOC)c1ccccc12 ?
Env fusion inh: -489.1[16.7 µM]; Yeast UUG start: -8.3

Results for C[C@@H]1CCCCO[C@@H](CN(C)CC2CCCCC2)[C@H](C)CN([C@H](C)CO)C(=O)c2cc(NS(=O)(=O)c3cccs3)ccc2O1 ?
Env fusion inh: -32.8[16.7 µM]; Yeast UUG start: 14.7

How did C[C@H]1CCCCO[C@H](CN(C)C(=O)Nc2cccc3ccccc23)[C@@H](C)CN([C@@H](C)CO)C(=O)c2cc(NC(=O)CCC(F)(F)F)ccc2O1 do in these assays?
Env fusion inh: 35.8[16.7 µM]; Yeast UUG start: 18.4

How did COc1ccc(NC(=O)N(C)C[C@@H]2Oc3c(NC(=O)C4CCCCC4)cccc3C(=O)N([C@H](C)CO)C[C@H]2C)cc1 do in these assays?
Env fusion inh: 5.4[16.7 µM]; Yeast UUG start: 9.3

Results for C[C@H](CO)N1C[C@H](C)[C@@H](CN(C)S(=O)(=O)c2ccccc2F)Oc2cc(-c3ccccc3)ccc2S1(=O)=O ?
Env fusion inh: 8.2[16.7 µM]; Yeast UUG start: -9.3

How did C[C@H](CO)N1C[C@H](C)[C@@H](CN(C)CC2CCCC2)Oc2cc(C3=CCCCC3)ccc2S1(=O)=O do in these assays?
Env fusion inh: 56.3*[16.7 µM]; Yeast UUG start: 21.0

Results for COc1ccccc1-c1cn(CC[C@H]2CC[C@@H](NC(=O)NC(C)C)[C@@H](CO)O2)nn1 ?
Env fusion inh: 0.7[16.7 µM]; Yeast UUG start: -1.4

What do the screens show for `Cc1ccc(S(=O)(=O)N(C)C[C@@H]2Oc3c(NC(=O)c4ccc(-c5nccs5)cc4)cccc3C(=O)N([C@H](C)CO)C[C@@H]2C)cc1`?
Env fusion inh: -11.2[16.7 µM]; Yeast UUG start: -11.1

How did Cc1ccccc1-c1ccc2c(c1)O[C@@H](CN(C)C(=O)C1CC1)[C@@H](C)CN([C@@H](C)CO)S2(=O)=O do in these assays?
Env fusion inh: -2.7[16.7 µM]; Yeast UUG start: 11.5

What do the screens show for `CNC(=O)C[C@@H]1CC[C@H]2[C@@H](COc3ccc(NC(=O)Nc4ccccc4OC)cc3C(=O)N2C)O1`?
Env fusion inh: 19.5[16.7 µM]; Yeast UUG start: 16.0

How did C[C@H](CO)N1C[C@H](C)[C@@H](CN(C)C(=O)CCCN(C)C)OCCCC[C@H](C)Oc2ccc(NC(=O)Nc3ccc4c(c3)OCO4)cc2C1=O do in these assays?
Env fusion inh: -12.4[16.7 µM]; Yeast UUG start: -12.2

Results for CN(C)C(=O)C[C@H]1CC[C@H]2[C@@H](COC[C@H](O)CN2Cc2nccs2)O1 ?
Env fusion inh: -9.1[16.7 µM]; Yeast UUG start: -6.1

Results for COc1ccc(CN(C)C[C@H]2OCCCC[C@@H](C)Oc3ccc(NC(=O)NC(C)C)cc3C(=O)N([C@H](C)CO)C[C@H]2C)cc1 ?
Env fusion inh: -3.9[16.7 µM]; Yeast UUG start: 34.5

How did COc1ccc(C#Cc2ccc3c(c2)O[C@@H](CN(C)C(C)=O)[C@@H](C)CN([C@@H](C)CO)S3(=O)=O)cc1 do in these assays?
Env fusion inh: 3.7[16.7 µM]; Yeast UUG start: 13.6

What do the screens show for `C[C@H](CO)N1C[C@H](C)[C@H](CN(C)Cc2ccc(Cl)c(Cl)c2)Oc2ccc(NC(=O)Nc3cccc4ccccc34)cc2CC1=O`?
Env fusion inh: 18.9[16.7 µM]; Yeast UUG start: 1.1

Results for C[C@H]1CN([C@@H](C)CO)C(=O)c2cccc(NC(=O)Nc3ccccc3)c2O[C@H]1CN(C)Cc1ccc(C(F)(F)F)cc1 ?
Env fusion inh: -5.2[16.7 µM]; Yeast UUG start: 4.7

What do the screens show for `COC(=O)c1c2oc(c1C(=O)OC)C(=O)N[C@H](Cc1ccccc1)Cn1cc(nn1)[C@@H](Cc1ccccc1)NC(=O)N[C@@H](CO)CC2`?
Env fusion inh: -16.3[16.7 µM]; Yeast UUG start: 4.6

Results for C[C@@H]1CN([C@@H](C)CO)S(=O)(=O)c2ccc(-c3cccnc3)cc2O[C@H]1CN(C)CC1CC1 ?
Env fusion inh: -6.9[16.7 µM]; Yeast UUG start: 2.8

What do the screens show for `Cc1ccc(S(=O)(=O)Nc2ccc3c(c2)C(=O)N([C@@H](C)CO)C[C@H](C)[C@@H](CN(C)C(=O)Nc2cccc4ccccc24)OCCCC[C@H](C)O3)cc1`?
Env fusion inh: 43.0[16.7 µM]; Yeast UUG start: -0.9

Results for C[C@@H]1CN([C@@H](C)CO)C(=O)c2cc(NC(=O)CCCN(C)C)ccc2O[C@@H](C)CCCCO[C@@H]1CN(C)CC1CCCCC1 ?
Env fusion inh: -22.6[16.7 µM]; Yeast UUG start: 5.9

Results for C[C@@H]1CN([C@H](C)CO)C(=O)c2cc(NC(=O)CCCN(C)C)ccc2O[C@@H](C)CCCCO[C@@H]1CN(C)CC1CCCCC1 ?
Env fusion inh: -6.2[16.7 µM]; Yeast UUG start: 14.6

What do the screens show for `C[C@H]1CN([C@@H](C)CO)C(=O)c2cc(NS(=O)(=O)c3cccs3)ccc2O[C@@H]1CN(C)Cc1ccc(C(F)(F)F)cc1`?
Env fusion inh: 18.2[16.7 µM]; Yeast UUG start: -0.8

What do the screens show for `C[C@@H]1CCCCO[C@H](CN(C)C(=O)Nc2cccc3ccccc23)[C@H](C)CN([C@H](C)CO)C(=O)c2cc(NS(=O)(=O)c3ccc(Cl)cc3)ccc2O1`?
Env fusion inh: 4.5[16.7 µM]; Yeast UUG start: -1.8

Results for C[C@@H]1CCCCO[C@H](CN(C)Cc2ccc3c(c2)OCO3)[C@H](C)CN([C@@H](C)CO)C(=O)c2cc(NC(=O)Nc3ccccc3)ccc2O1 ?
Env fusion inh: 7.3[16.7 µM]; Yeast UUG start: 31.9

What do the screens show for `CO[C@@H]1CN(C)C(=O)c2cc(NC(=O)NC(C)C)ccc2OC[C@@H](C)N(S(C)(=O)=O)C[C@H]1C`?
Env fusion inh: 10.9[16.7 µM]; Yeast UUG start: 20.0

What do the screens show for `C[C@@H]1CCCCO[C@H](CN(C)C(=O)CCC(F)(F)F)[C@H](C)CN([C@H](C)CO)C(=O)c2cc(NS(=O)(=O)c3cn(C)cn3)ccc2O1`?
Env fusion inh: 11.2[16.7 µM]; Yeast UUG start: -5.5

Results for C[C@H](CO)N1C[C@H](C)[C@@H](CN(C)Cc2ccc3c(c2)OCO3)OCCCC[C@H](C)Oc2ccc(NC(=O)Nc3ccc4c(c3)OCO4)cc2C1=O ?
Env fusion inh: -5.5[16.7 µM]; Yeast UUG start: 0.0

What do the screens show for `CNC[C@H]1Oc2ccc(NC(=O)Nc3ccc(OC)cc3)cc2CC(=O)N([C@H](C)CO)C[C@@H]1C`?
Env fusion inh: 0.6[16.7 µM]; Yeast UUG start: 1.7

What do the screens show for `COc1ccc(-c2ccc3c(c2)O[C@H](CN(C)C(C)=O)[C@H](C)CN([C@H](C)CO)S3(=O)=O)cc1`?
Env fusion inh: 1.1[16.7 µM]; Yeast UUG start: 8.7

How did CO[C@H]1CN(C)C(=O)c2ccc(NC(=O)NC(C)C)cc2OC[C@@H](C)N(C(=O)C2CCC2)C[C@H]1C do in these assays?
Env fusion inh: -4.1[16.7 µM]; Yeast UUG start: 78.6

What do the screens show for `CS(=O)(=O)N1[C@@H](C#N)[C@@H](c2ccc(C#CC3CCCC3)cc2)[C@@H]1CO`?
Env fusion inh: -2.9[16.7 µM]; Yeast UUG start: 0.6

Results for COc1ccc(S(=O)(=O)N(C)C[C@@H]2Oc3c(NS(=O)(=O)c4ccc(F)cc4)cccc3C(=O)N([C@@H](C)CO)C[C@H]2C)cc1 ?
Env fusion inh: -33.2[16.7 µM]; Yeast UUG start: 31.4

Results for C[C@@H]1CN([C@@H](C)CO)C(=O)Cc2cc(NC(=O)Cc3cn(C)c4ccccc34)ccc2O[C@@H]1CN(C)Cc1ccc(C(=O)O)cc1 ?
Env fusion inh: -12.4[16.7 µM]; Yeast UUG start: -16.3

How did C[C@@H]1CN([C@H](C)CO)C(=O)Cc2cc(NC(=O)CCCCCC(=O)Nc3ccccc3N)ccc2O[C@H]1CN(C)S(C)(=O)=O do in these assays?
Env fusion inh: -0.8[16.7 µM]; Yeast UUG start: -4.9

How did C[C@H](CO)N1C[C@H](C)[C@H](CN(C)C(=O)C2CCOCC2)Oc2ncc(C3=CCCC3)cc2C1=O do in these assays?
Env fusion inh: 2.9[16.7 µM]; Yeast UUG start: -5.2

What do the screens show for `Cc1noc(C)c1NC(=O)N(C)C[C@@H]1OCCCC[C@@H](C)Oc2ccc(NC(=O)Nc3ccc(F)cc3)cc2C(=O)N([C@H](C)CO)C[C@@H]1C`?
Env fusion inh: 8.7[16.7 µM]; Yeast UUG start: -2.5

Results for C[C@H](CO)N1C[C@H](C)[C@@H](CN(C)C(=O)Nc2ccc3c(c2)OCO3)OCc2cnnn2CCCC1=O ?
Env fusion inh: -6.5[16.7 µM]; Yeast UUG start: -5.7

Source: PubChem BioAssay (Broad Institute)
